YB-1 expr inh – inhibitors of YB-1 gene expression, primary screen, cell-based, fluorescence | 0.37% of 30,000 active | U2OS, qRT-PCR YB-1 vs CDIP delta delta Cp, 16 h; hits give high values; zero = DMSO, each unit about twofold | delta delta Cp (YB-1 minus CDIP) (concentration not given with the values) | AID 434959, 2010;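 active means delta delta Cp rounded down to an integer at or above 3, about 3 SD of DMSO wells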;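 further: higher means less YB-1 transcript or more CDIP transcript relative to DMSO; stock transfer was 100 nL into about 100 µL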
MITF inh – inhibitors of MITF, primary screen, MITF inhibitor project, cell-based, luminescence | AID 2240, 2010 | inhibition, % (concentration not given with the values) | TRPM1 promoter luciferase, 24 h | 0.28% of 37,000 active;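 active means most replicates at 85% or more, or half of them and the mean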;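 further: human melanocyte line stably carrying TRPM1 promoter luciferase reporter; 0% = vehicle wells and 100% = a positive control; the first replicate is given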
Shh pathway inh – Hedgehog pathway signaling inhibitors, primary screen, luminescence, Shh-LIGHT2 cells, Gli-luciferase | inhibition, % (test concentration not listed) | AID 2313, 2010 | Shh-LIGHT2 Gli-luciferase reporter, 30 h | 2.1% of 22,000 active;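 active means replicate mean of 65% or more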;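 further: pathway switched on by Shh-conditioned medium diluted 1 in 25 in low serum; 100 nL library stock added to about 40 µL; 0% = median of neutral wells and 100% = positive control level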
PD-1 reversal – activators reversing PD-1 mediated T-cell inhibition, primary screen, luminescence, primary human CD4 T cells, PD-L1 beads | 29,000 tested, under 10 active | activation, % (concentration not given with the values) | CellTiter-Glo 96 h | AID 2316, 2010;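 active means replicate mean of 50% or more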;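 further: 0% = median vehicle wells and 100% = positive control; 100 nL library stock added to about 50 µL; numbers are from one replicate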
An asterisk follows results filed as active. Only part of the results is shown; rates above refer to the full screens.

How did C[C@@H]1CCCCO[C@@H](CN(C)C(=O)Nc2cccc3ccccc23)[C@@H](C)CN([C@H](C)CO)C(=O)c2cc(NS(=O)(=O)c3ccc(F)cc3)ccc2O1 do in these assays?
YB-1 expr inh: 0.15; MITF inh: 31; Shh pathway inh: -19

How did C[C@H]1CN([C@@H](C)CO)C(=O)c2cccc(NC(=O)Nc3cccc4ccccc34)c2O[C@H]1CN(C)Cc1ccc2c(c1)OCO2 do in these assays?
YB-1 expr inh: -0.062; MITF inh: 23; Shh pathway inh: -18; PD-1 reversal: -0.7

How did S=C(Nc1ccccn1)Nc1ccccn1 do in these assays?
YB-1 expr inh: -0.48; MITF inh: -46; Shh pathway inh: -22; PD-1 reversal: -2.2

Results for COc1ccc(CN(C)C[C@H]2Oc3ccc(NC(=O)c4ccncc4)cc3C(=O)N([C@@H](C)CO)C[C@@H]2C)cc1 ?
YB-1 expr inh: -0.42; MITF inh: -6; Shh pathway inh: -22; PD-1 reversal: 1.4

What do the screens show for `CC(=O)c1cccc(-n2nnnc2SCC(=O)Nc2ccccc2F)c1`?
MITF inh: 7; PD-1 reversal: -0.9

How did C[C@H](CO)N1C[C@H](C)[C@H](CN(C)S(=O)(=O)c2ccc(Cl)cc2)Oc2ccc(NC(=O)CCN3CCOCC3)cc2CC1=O do in these assays?
YB-1 expr inh: 0.17; MITF inh: 6; Shh pathway inh: 5; PD-1 reversal: 0.2

What do the screens show for `COc1c(NC(=O)N2CC(C)OC(C)C2)csc1Cl` (centres undefined)?
YB-1 expr inh: 0.044; MITF inh: 24; PD-1 reversal: 1.8

What do the screens show for `Cc1cc(C)nc(SCC(=O)Nc2ccc(N3CCOCC3)cc2)n1`?
MITF inh: 26; PD-1 reversal: 0.3

What do the screens show for `CC1CC[C@@]2(OC1)O[C@H]1CC3C4CC=C5C[C@@H](O[C@@H]6O[C@H](CO)[C@@H](O[C@@H]7O[C@@H](C)[C@H](O)[C@@H](O)[C@H]7O)[C@H](O)[C@H]6O[C@@H]6O[C@@H](C)[C@H](O)[C@@H](O)[C@H]6O)CC[C@]5(C)C4CC[C@]3(C)[C@@]1(O)[C@@H]2C` (some centres undefined)?
YB-1 expr inh: 2; MITF inh: 74; Shh pathway inh: 80*; PD-1 reversal: -15

How did C[C@H](CO)N1C[C@H](C)[C@@H](CN(C)S(=O)(=O)c2ccccc2)Oc2ccc(NS(=O)(=O)c3ccccc3)cc2C1=O do in these assays?
YB-1 expr inh: -0.047; MITF inh: -1; Shh pathway inh: 20

What do the screens show for `COc1cc([C@@H](O)[C@@H](CO[C@@H]2O[C@H](CO)[C@@H](O)[C@H](O)[C@H]2O)Oc2ccc(/C=C/CO)cc2OC)ccc1O`?
YB-1 expr inh: 0.41; MITF inh: 3; Shh pathway inh: 9; PD-1 reversal: -0.7

Results for C[C@@H]1CN([C@@H](C)CO)C(=O)c2cccc(NS(=O)(=O)c3ccc(F)cc3)c2O[C@@H]1CN(C)Cc1ccc(C(F)(F)F)cc1 ?
YB-1 expr inh: 0.67; MITF inh: 9; Shh pathway inh: 30

How did C[C@H]1CN([C@@H](C)CO)C(=O)c2cccc(NC(=O)NC3CCCCC3)c2O[C@H]1CN(C)S(C)(=O)=O do in these assays?
YB-1 expr inh: -0.22; MITF inh: -3; Shh pathway inh: 2; PD-1 reversal: 1.8

What do the screens show for `C[C@@H]1CN([C@H](C)CO)C(=O)c2cccc(NC(=O)c3cnccn3)c2O[C@H]1CN(C)S(=O)(=O)c1ccc(F)cc1`?
YB-1 expr inh: -0.051; MITF inh: -3; Shh pathway inh: -3; PD-1 reversal: -0.4

What do the screens show for `CCN(CC)CC(=O)Nc1sc2c(c1C(=O)Nc1ccccc1)CCC2`?
MITF inh: 17; PD-1 reversal: -2.0

2 successive records from above, for reference:
How did C[C@@H]1CCCCO[C@@H](CN(C)C(=O)Nc2cccc3ccccc23)[C@@H](C)CN([C@H](C)CO)C(=O)c2cc(NS(=O)(=O)c3ccc(F)cc3)ccc2O1 do in these assays?
YB-1 expr inh: 0.15; MITF inh: 31; Shh pathway inh: -19

How did C[C@H]1CN([C@@H](C)CO)C(=O)c2cccc(NC(=O)Nc3cccc4ccccc34)c2O[C@H]1CN(C)Cc1ccc2c(c1)OCO2 do in these assays?
YB-1 expr inh: -0.062; MITF inh: 23; Shh pathway inh: -18; PD-1 reversal: -0.7

(continued)
What do the screens show for `CCn1c(SCC(=O)Nc2ccc3c(c2)OCCO3)nc2sc(C)c(C)c2c1=O`?
MITF inh: 5; PD-1 reversal: -1.6

What do the screens show for `C[C@H]1CN([C@@H](C)CO)C(=O)Cc2cc(NS(=O)(=O)c3ccc(F)cc3)ccc2O[C@H]1CN(C)S(C)(=O)=O`?
YB-1 expr inh: -0.19; MITF inh: -3; Shh pathway inh: -18

Results for O=C(O)c1nn(-c2ccccc2)c2c1CCc1occc1-2 ?
YB-1 expr inh: -0.45; MITF inh: 7; PD-1 reversal: 1.5

Results for COc1ccc(NC(=O)N(C)C[C@@H]2Oc3ccc(NC(=O)Cc4ccccc4)cc3CC(=O)N([C@H](C)CO)C[C@H]2C)cc1 ?
YB-1 expr inh: 0.21; MITF inh: -6; Shh pathway inh: -30

How did C[C@H]1CN([C@@H](C)CO)C(=O)c2cc(NC(=O)C3CCCCC3)ccc2O[C@@H]1CN(C)Cc1ccccc1 do in these assays?
YB-1 expr inh: 0.13; MITF inh: -12; PD-1 reversal: 2.8

Results for CCOc1cccc(-c2nnc(SCC(=O)Nc3cccc(Cl)c3C)n2C)c1 ?
MITF inh: 3; PD-1 reversal: 0.3

What do the screens show for `CC(NS(=O)(=O)c1ccc(Cl)cc1)C(=O)Nc1cc(Cl)ccc1Oc1ccccc1` (centres undefined)?
MITF inh: -7; PD-1 reversal: -2.4

How did Cc1nn(Cc2cccc(Oc3ccccc3)c2)c(C)c1NC(=O)NC12CC3CC(CC(C3)C1)C2 do in these assays?
MITF inh: 31; PD-1 reversal: 0.6

What do the screens show for `Cc1ccc(S(=O)(=O)N(C)C[C@H]2Oc3ccc(NC(=O)NC(C)C)cc3C(=O)N([C@H](C)CO)C[C@H]2C)cc1`?
YB-1 expr inh: -0.17; MITF inh: -5; Shh pathway inh: 16; PD-1 reversal: 0.2

How did O=C(Cn1cc(C(=O)c2cccs2)c2ccccc21)Nc1ccccc1 do in these assays?
MITF inh: 52; PD-1 reversal: 1.0

Results for COc1ccc(-n2c(SCC(=O)Nc3ccc(Cl)cc3Cl)nnc2-c2ccccc2)cc1 ?
MITF inh: 25; PD-1 reversal: -1.2

What do the screens show for `CC1OC(OC(=O)C2=CC3CC(C)(C)CC34C(C)OC(=O)CC24)C(O)C(O)C1O` (centres undefined)?
YB-1 expr inh: -0.48; MITF inh: 19; Shh pathway inh: 11; PD-1 reversal: 0.5

What do the screens show for `C[C@@H]1CN([C@H](C)CO)C(=O)c2cccc(NC(=O)c3nc4ccccc4s3)c2O[C@@H]1CN(C)S(=O)(=O)c1ccc(F)cc1`?
YB-1 expr inh: 0.068; MITF inh: -1; Shh pathway inh: 20; PD-1 reversal: -1.1

What do the screens show for `C[C@@H]1CN([C@H](C)CO)C(=O)c2cc(NC(=O)Cc3cn(C)c4ccccc34)ccc2O[C@@H]1CN(C)Cc1ccc(C(=O)Nc2ccccc2N)cc1`?
YB-1 expr inh: -0.45; MITF inh: -4; PD-1 reversal: -1.6

Results for C[C@@H]1CN([C@@H](C)CO)C(=O)Cc2cc(NS(=O)(=O)c3ccccc3)ccc2O[C@@H]1CN(C)Cc1ccccc1 ?
YB-1 expr inh: -0.49; MITF inh: -15; PD-1 reversal: -1.2

What do the screens show for `COc1ccc(OC(C)c2nc(-c3ccccn3)no2)cc1` (centres undefined)?
MITF inh: -17; PD-1 reversal: -2.5

How did CCOc1ccc(C(C)=O)cc1CSc1nc(C)cc(C)n1 do in these assays?
MITF inh: 57; PD-1 reversal: 0.0

Results for C[C@@H]1CN([C@H](C)CO)C(=O)c2cccc(NS(=O)(=O)c3ccc(F)cc3)c2O[C@@H]1CN(C)C(=O)Nc1cccc2ccccc12 ?
YB-1 expr inh: -0.082; MITF inh: 2; Shh pathway inh: 22; PD-1 reversal: 1.0

What do the screens show for `Cc1noc(C)c1NC(=O)N(C)C[C@H]1Oc2ccc(NS(=O)(=O)c3cccs3)cc2CC(=O)N([C@@H](C)CO)C[C@H]1C`?
YB-1 expr inh: 0.36; MITF inh: -2; Shh pathway inh: -30; PD-1 reversal: 0.3

How did O=C(CSc1nc2ccccc2c(=O)n1-c1ccccc1)Nc1ccc(Br)cc1Cl do in these assays?
MITF inh: -2; PD-1 reversal: -2.7

Results for Cc1noc(C)c1NC(=O)N(C)C[C@H]1Oc2c(NS(=O)(=O)c3ccc(Cl)cc3)cccc2C(=O)N([C@H](C)CO)C[C@@H]1C ?
YB-1 expr inh: 0.39; MITF inh: -3; Shh pathway inh: -20

What do the screens show for `CSC(=O)OCC1=C[C@@H]2OC(=O)C3=CO[C@@H](O[C@@H]4O[C@H](CO)[C@@H](O)[C@H](O)[C@H]4O)[C@H]1[C@@H]32`?
YB-1 expr inh: -0.32; MITF inh: -5; Shh pathway inh: -17; PD-1 reversal: 2.4

How did C[C@@H]1CN([C@H](C)CO)C(=O)c2cccc(NC(=O)c3ccncc3)c2O[C@@H]1CN(C)S(=O)(=O)c1ccc(Cl)cc1 do in these assays?
YB-1 expr inh: 0.12; MITF inh: -24; Shh pathway inh: 9; PD-1 reversal: 2.3

How did C/C=C1/[C@H](O[C@@H]2O[C@H](CO)[C@@H](O)[C@H](O)[C@H]2O)OC=C(C(=O)OC)[C@H]1CC(=O)OCCc1ccc(OC(=O)C[C@@H]2C(C(=O)OC)=CO[C@@H](O[C@@H]3O[C@H](CO)[C@@H](O)[C@H](O)[C@H]3O)/C2=C/C)cc1 do in these assays?
YB-1 expr inh: 0.2; MITF inh: 19; Shh pathway inh: -28; PD-1 reversal: -0.1

Results for COc1cc2c(cc1OC)[C@@H]1C(=O)c3ccc4c(c3O[C@@H]1CO2)C=CC(C)(C)O4 ?
YB-1 expr inh: -0.12; MITF inh: 100*; Shh pathway inh: 32

What do the screens show for `C[C@H](CO)N1C[C@H](C)[C@@H](CN(C)Cc2ccc(C(=O)Nc3ccccc3N)cc2)Oc2ccc(NS(=O)(=O)c3cccs3)cc2C1=O`?
YB-1 expr inh: -0.29; MITF inh: -3; PD-1 reversal: -0.4

Results for CC(C)NC(=O)Nc1cccc2c1O[C@H](CN(C)C)[C@H](C)CN([C@H](C)CO)C2=O ?
YB-1 expr inh: 0.033; MITF inh: -2; Shh pathway inh: -13; PD-1 reversal: 3.0

Results for COc1ccc(C(OC(=O)c2ccccc2)c2nccc3ccccc23)cc1 (centres undefined) ?
YB-1 expr inh: -0.077; MITF inh: -14; PD-1 reversal: -0.7

What do the screens show for `C[C@H]1CN([C@@H](C)CO)C(=O)Cc2cc(NS(=O)(=O)c3cn(C)cn3)ccc2O[C@H]1CN(C)Cc1ccc2c(c1)OCO2`?
YB-1 expr inh: -0.067; MITF inh: -4; Shh pathway inh: -8

What do the screens show for `COc1ccc(S(=O)(=O)Nc2cccc3c2O[C@H](CN(C)Cc2ccc4c(c2)OCO4)[C@H](C)CN([C@@H](C)CO)C3=O)cc1`?
YB-1 expr inh: 0.015; MITF inh: 2; Shh pathway inh: -57; PD-1 reversal: 1.7

Results for Cc1ccc2nc(N3CCNCC3)c(-n3nc(C)cc3C)nc2c1 ?
MITF inh: 4; PD-1 reversal: -0.9

Results for C[C@@H]1CN([C@@H](C)CO)C(=O)c2cccc(NS(=O)(=O)c3ccccc3)c2O[C@@H]1CN(C)S(=O)(=O)c1cccs1 ?
YB-1 expr inh: -0.012; MITF inh: 1; Shh pathway inh: 39; PD-1 reversal: -1.7

What do the screens show for `Cc1nc2c(=O)oc3ccccc3c2n1-c1ccccc1`?
YB-1 expr inh: -0.33; MITF inh: -43; Shh pathway inh: 7; PD-1 reversal: -1.1

How did COc1ccc(CN(C)C[C@H]2Oc3ccc(NC(=O)Nc4ccc5c(c4)OCO5)cc3CC(=O)N([C@@H](C)CO)C[C@H]2C)cc1 do in these assays?
YB-1 expr inh: -0.44; MITF inh: -17

What do the screens show for `NC(=O)CSc1nnc(Cc2ccccc2)n1-c1ccc(Cl)cc1`?
MITF inh: 7; PD-1 reversal: -1.4

What do the screens show for `Cc1noc(C)c1S(=O)(=O)Nc1ccc2c(c1)C(=O)N([C@@H](C)CO)C[C@H](C)[C@@H](CN(C)C(=O)NC(C)C)O2`?
YB-1 expr inh: -0.072; MITF inh: -4

How did COc1ccc(NC(=O)NCCN2CCN(c3cc(OC)ccc3OC)CC2)cc1 do in these assays?
MITF inh: 7; PD-1 reversal: 1.9

How did C[C@@H]1CN([C@H](C)CO)C(=O)Cc2cc(NC(=O)C3CCCCC3)ccc2O[C@H]1CN(C)CC1CC1 do in these assays?
YB-1 expr inh: 0.31; MITF inh: -11; Shh pathway inh: -14; PD-1 reversal: 0.8

Results for C[C@H](CO)N1C[C@H](C)[C@H](CN(C)Cc2ccc(Cl)c(Cl)c2)Oc2c(NC(=O)c3ccc(-c4nccs4)cc3)cccc2C1=O ?
YB-1 expr inh: -0.34; MITF inh: 66; Shh pathway inh: -8; PD-1 reversal: -5.2

Compound activity deposited in PubChem BioAssay by Broad Institute.
